Bioassay records (PubChem BioAssay)
Six1-Eya2 inh – Six1/Eya2 interaction inhibition; Q15475+O00167; AlphaScreen GST-Six1/His-Eya2 binding, biochemical; hits give low values; control for the full effect not named in the record; activity change, % (test concentration not listed); AID 651725; 0.56% of 360,000 active; in the data active = activity change below about -65%; inconclusive = about -30% to -65%; inactive = above about -30%; also: % is scaled to controls: 0 for no effect and ±100 for the full control effect; compound concentration not given in the record
Target sequence (O00167 whole entry, looked up): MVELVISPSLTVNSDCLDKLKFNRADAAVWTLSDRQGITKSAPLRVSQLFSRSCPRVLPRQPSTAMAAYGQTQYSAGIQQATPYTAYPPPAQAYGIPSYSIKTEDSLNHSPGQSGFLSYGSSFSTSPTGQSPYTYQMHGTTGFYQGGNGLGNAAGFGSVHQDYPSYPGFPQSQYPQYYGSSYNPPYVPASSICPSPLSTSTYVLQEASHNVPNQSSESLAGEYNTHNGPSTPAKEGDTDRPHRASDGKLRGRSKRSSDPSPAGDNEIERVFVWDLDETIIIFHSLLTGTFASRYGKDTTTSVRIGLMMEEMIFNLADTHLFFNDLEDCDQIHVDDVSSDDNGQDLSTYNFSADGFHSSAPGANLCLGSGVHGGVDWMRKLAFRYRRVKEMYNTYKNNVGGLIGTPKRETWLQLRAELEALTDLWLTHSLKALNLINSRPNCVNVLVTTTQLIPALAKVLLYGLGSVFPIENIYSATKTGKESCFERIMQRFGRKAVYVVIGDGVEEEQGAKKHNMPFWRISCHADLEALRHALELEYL
Target sequence (Q15475 whole entry, looked up): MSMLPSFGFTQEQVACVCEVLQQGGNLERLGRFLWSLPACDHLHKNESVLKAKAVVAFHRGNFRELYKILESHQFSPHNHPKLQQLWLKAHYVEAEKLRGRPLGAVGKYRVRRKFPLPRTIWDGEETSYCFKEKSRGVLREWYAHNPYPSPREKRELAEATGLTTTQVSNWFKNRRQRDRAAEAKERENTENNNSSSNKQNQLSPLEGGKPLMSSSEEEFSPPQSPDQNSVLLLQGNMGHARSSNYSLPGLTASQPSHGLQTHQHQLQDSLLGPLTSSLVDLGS
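GST-Six1 + His-Eya2 (5X stock: 250/500 nM); Tris pH 8.0, 300 mM NaCl, 0.05% BSA, 0.02% Tween 20; GSH donor/Ni acceptor beads; 1 h 37 °C dark; AlphaScreen readout.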
Sfp PPTase inh – Sfp phosphopantetheinyl transferase inhibition; Q9F4F7; Potency, µM, for the others: max response, negative = inhibition, most hits filed as inhibitors; Biochemical Sfp PPTase activity, qHTS; 3.5% of 310,000 active; active = well fitted inhibition curve with a large enough effect; inconclusive = small, poorly fitted or top-dose-only effect, or another doubt; inactive = no such curve, though single readings can be large or run the other way;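 also: the enzyme is Sfp with the accession as filed and its product quenches rhodamine fluorescence; potency is read from the fitted curve at half-maximal effect; 0% = enzyme reaction without inhibitor and -100% = no enzyme wells; top concentration of the series not given in the record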
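Sfp 15 nM + cpd, 15 min RT; start w/ rhodamine-CoA 5 uM, BHQ-2-YbbR 12.5 uM (final); 50 mM Hepes pH 7.6, 10 mM MgCl2, 0.01% NP-40, 0.01% BSA; read 525/598 nm at 0 and 30 min.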
D2 PAM – positive allosteric modulators of human D2 dopamine receptor; P14416; DiscoveRx D2 beta-arrestin cells, luminescence, 90 min; 100% = 57 uM dopamine signal; potentiation, % (test concentration not listed); 0.23% of 360,000 active; active = potentiation of 50% or more; inconclusive = 30% to 50%; inactive = 30% or less;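 also: compound concentration not given in the record; tested on top of an EC20 dose of dopamine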
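PathHunter beta-arrestin assay in DiscoveRx D2 cells. Compounds were added with an EC20 of dopamine (50 nM final) for 90 min at 37 deg C. Luminescence was read 1 h after detection reagent, with 57 uM dopamine as the EC100 control.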
TRPV1 PAM – potentiators of human vanilloid receptor 1 (TRPV1) | TRPV1-expressing cells, Fluo-8 calcium influx, capsaicin EC20 potentiation; host cell line not named in the record; control for the full effect not named in the record | potentiation, % at 8.33 µM | 0.02% of 320,000 active | AID 540277; active means potentiation above 80%; inconclusive means 30% to 80%; inactive means below 30%; also: 0% is about no effect
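Cells expressing TRPV1 were dye-loaded with Fluo-8 and read kinetically: 10 s baseline, 3 min after compound (agonist portion), then 2 min after EC20 capsaicin (allosteric enhancer portion). Calcium-bound dye fluorescence at 480/520 nm.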
D2 ag – human D2 receptor agonism in beta-arrestin assay. 0.084% of 360,000 active. AID 624465. activation, % (no concentration beside the values). DiscoveRx PathHunter D2 beta-arrestin, luminescence, 90 min; 100% = 57 uM dopamine signal; in the data active = activation above about 40%; inconclusive = about 15% to 40%; inactive = below about 15%; also: compound concentration not given in the record; the text of the record calls up to 30% inactive
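DiscoveRx PathHunter D2 beta-arrestin cells (2,100/well) attached overnight, then compound-stimulated 90 min at 37 C in HBSS/10 mM HEPES/0.1% Tween-20 buffer; beta-galactosidase complementation read by luminescence after 1 h at ambient temperature. Dopamine 57 uM final (EC100) as control.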
PINK1 modulator – PINK1 expression modulation. PINK1 immunofluorescence, high-content cytometry, 24 h. Potency, µM (highest dose often 76.6 µM), inactives show top-dose activation (PINK1 increase), actives largely listed as activators. 0.2% of 410,000 active; active = well fitted activation curve with a large enough effect; inconclusive = small, poorly fitted or top-dose-only effect; inactive = flat fitted curve, though single readings scatter; cell line not stated here;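 also: potency is read from the fitted curve at half-maximal effect; % of control where 0% means no effect; nearly all actives have a fitted effect of over 65% in size; a mitochondrial uncoupler was the plate control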
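PINK1 protein level read as immunofluorescence by microplate cytometer in a fixed, stained stable cell line after 24 h exposure to five compound concentrations, with CCCP as control.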
CtBP-E1A inh – inhibitors of CtBP/E1A interaction | AlphaScreen GST-E1A/His-CtBP binding, 1536-well; hits give low values; control for the full effect not named in the record | activity change, % (no concentration beside the values) | 0.49% of 340,000 active | AID 651724; in the data active means activity change below about -65%; inconclusive means about -30% to -65%; inactive means above about -30%; also: % is scaled to controls: 0 for no effect and ±100 for the full control effect; compound concentration not given in the record
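Protein mix (5X: 125 nM each GST-E1A, His-CtBP) was incubated with pinned compound 2 h at 37 deg C in dark, in 50 mM Tris pH 8.0 buffer with 300 mM NaCl. Glutathione donor and nickel acceptor beads followed; AlphaScreen signal read after 1 h.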
The depositor's hits bear a star; u = inconclusive; x = not tested or not shown; [ ] = another dose, or the depositor's remark.

SMILES	Six1-Eya2 inh	Sfp PPTase inh	D2 PAM	TRPV1 PAM	D2 ag	PINK1 modulator	CtBP-E1A inh
CCCOc1ccc(CSC(=N)N)cc1C(=O)OC	10.1	15.1%	-8.9	-2.9	-9.0	1.8%	0.0
Cn1nnc(NC(=O)c2cccc(F)c2)n1	-12.8	24.2%	-11.1	-7.7	-3.0	1.2%	-4.4
COc1ccc(NC(=O)c2ccc3c(=O)n(CC4CCCO4)c(=S)[nH]c3c2)c(OC)c1 (stereo not given)	3.9	-2.1%	0.8	8.4	-3.0	0.9%	2.4
COc1ccc(NC(C)=O)cc1NC(=O)c1ccc(C#N)cc1	15.4	17.9%	u	9.8	0.1	1.1%	x
Cc1ccc(/C=N/NC(=O)Cn2nnc(N)n2)o1	-12.4	-7.5%	-17.1	x	-0.9	0.1%	3.3
COc1ccc(OC)c(-n2c(-c3cccc(O)c3)n[nH]c2=S)c1	2.0	25.1µM*	15.7	-0.9	0.4	x	5.2
CCOP(=O)(OCC)c1nc(-c2cccc3ccccc23)oc1NCc1ccccc1	13.4	-26.2%	-6.3	-17.4	-1.8	-0.3%[38.3 µM]	14.1
COc1ccccc1CCNC(=O)C(=O)NCC1OCCN1S(=O)(=O)c1cccs1 (stereo not given)	-0.3	3.6%	-20.9	-10.8	-5.2	4.8%	2.6
CC(C)CCN1C(=O)c2ccccc2C1c1nnnn1Cc1ccccc1 (stereo not given)	10.9	x	x	x	x	0.9%	6.3
CCc1c(C)nc2cc(C)[nH]n2c1=O	-6.3	19.2%	-20.7	0.7	2.0	5.4%	-2.0
COc1ccc(OC)c(NC(=O)CN(C)CC(=O)Nc2ccccc2Br)c1	-2.2	u	-4.1	6.7	0.1	-1.0%	8.6
Cc1ccc(S(=O)(=O)c2nc(S(C)(=O)=O)sc2N2CCCCCC2)cc1	2.2	-7.5%	-6.4	1.6	1.1	-1.3%	-7.6
COc1cccc(NC(=O)c2cccc(Cl)c2)c1	9.7	x	-9.8	8.4	-1.2	-0.1%	8.4
O=C(O)C/C=C(/NC(=O)OCc1ccccc1)C(=O)OCc1ccccc1	2.1	7.7%	-6.9	4.4	0.2	2.1%	-8.2
COCC(=O)Nc1nc(-c2ccc(C)cc2)c(C)s1	0.7	5.7%	10.6	-10.2	-0.8	1.1%	8.2
CCCCCCCCCC(=O)N[C@@H]1c2cc(OC)c(OC)cc2C[C@H]1OCc1ccccc1	2.6	x	x	x	0.5	2.0%	2.9
O=C(CN1C(=O)c2ccccc2C1=O)Nc1ccc(S(=O)(=O)N2CCOCC2)cc1	2.6	-3.5%	-4.7	0.3	1.7	-1.3%	0.4
CC(C)(C)c1ccc(C(=O)NCCC(=O)NCc2cccs2)cc1	1.3	10.4%	-11.5	-19.3	3.8	3.0%	2.5
Cc1cc(C(=O)N2CCc3c([nH]c4ccccc34)C2c2c(F)cccc2Cl)no1 (stereo not given)	-3.4	17.4%	-2.9	3.6	-4.7	0.6%	-17.2
COc1ccccc1-c1noc(CCC(=O)NC2CCCC2)n1	5.0	-8.7%	-8.2	1.1	-1.1	-0.8%	1.5
O=C(Cc1c(F)cccc1Cl)NCC(=O)OCc1ccccc1	0.1	x	-65.8	-5.0	-1.4	-0.9%	9.0
CCC(C(=O)Nc1ccc2c(c1)OCCO2)c1ccccc1 (stereo not given)	-0.5	-24.6%	0.0	-17.6	-5.2	1.5%	-6.6
CC(=O)c1c2c3c(cccc3n(C)c1=O)C(=O)c1ccccc1-2	-22.2	-2.1%	-5.9	1.8	-3.5	9.8%	x
O=C(COC(=O)CNC(=O)c1ccccc1)NCCNC(=O)COC(=O)CNC(=O)c1ccccc1	0.5	x	11.7	-6.3	-3.1	-2.1%	-0.6
COc1ccc(CCC2(C)NC(=O)N(C(C)C(=O)N3c4ccccc4CC3C)C2=O)cc1 (stereo not given)	0.1	x	-0.7	-31.8	5.3	0.6%	0.5
Cc1cccc(NC(=O)CSc2cc(C(=O)c3nccn3C)c3ccccc3n2)c1	-6.4	14.9%	7.4	0.6	-2.3	u	-7.3
CC(=O)NCCn1c(SCC(=O)OCc2ccccc2)nc2ccccc2c1=O	-1.1	9.7%	3.0	u	-0.5	-5.5%[38.3 µM]	-3.2
COc1ccc(-c2cc(NCc3ccccn3)n3ncnc3n2)cc1	-10.5	-18.6%	-4.3	16.8	9.6	0.2%	x
O=S(=O)(Nc1ccncc1Cl)c1ccccc1	-14.6	-1.7%	-18.5	8.6	1.0	-0.6%	-8.5
COCCNC(=O)/C(=C/c1ccccc1Cl)c1ccccc1	0.9	-4.3%	-9.6	6.1	-3.4	-1.2%	6.8
CCCCC(=O)NC(=S)Nc1cc([N+](=O)[O-])ccc1OC	-10.0	23.4%	-1.0	-21.5	-1.3	5.3%	-7.4
CC(C)(C)Oc1ncc(Br)c(OC(C)(C)C)n1	4.4	4.8%	-0.8	-4.3	-1.1	0.2%[38.3 µM]	-3.0
COc1ccc2nc(N=Nc3ccc(O)c4ccccc34)sc2c1	u	-4.5%	u	4.2	9.0	-1.0%	u
COc1cc(NC(=O)CSC(=S)N2CCCC2)c(OC)cc1Cl	-3.4	x	-31.3	3.2	-2.3	7.9%	4.9
COc1ccc(-c2cc(C(F)(F)F)nc(N3CCOCC3)n2)cc1	20.7	4.4%	-11.3	-24.9	-1.9	13.8%[38.3 µM]	22.0
C[C@@H]1O[C@@H](O[C@@H]2C(=O)c3c(O)cc(O)cc3O[C@H]2c2ccc(O)c(O)c2)[C@H](O)[C@H](O)[C@H]1O	-13.7	x	3.0	1.1	1.1	0.6%	x
CCN(CC(=O)Nc1ccc(NC(C)=O)cc1)C(=O)c1ccc2c(c1)OCO2	-1.1	x	1.7	18.2	1.2	1.3%	7.4
CCC(C)N(C(=O)COc1ccccc1C#N)C1CCS(=O)(=O)C1 (stereo not given)	-2.5	x	-8.4	-2.5	-4.1	0.1%	6.4
COc1ccc(CCNCC(O)COc2cccc(C(C)=O)c2)cc1OC (stereo not given)	-3.6	-31.1%	-2.3	-10.6	-3.7	-1.4%	1.3
Cc1c(C)n(Cc2ccc(F)cc2)c2ccc(C(=O)N3CCN(c4ccccn4)CC3)cc12	-26.5	-3.5%	-5.7	-6.7	2.1	2.7%	x

Limited to D2 PAM, Six1-Eya2 inh and CtBP-E1A inh, for 4 of the compounds above:
canonical_smiles,D2 PAM,Six1-Eya2 inh,CtBP-E1A inh
CC(C)CCN1C(=O)c2ccccc2C1c1nnnn1Cc1ccccc1 (stereo not given),x,10.9,6.3
CCc1c(C)nc2cc(C)[nH]n2c1=O,-20.7,-6.3,-2.0
COc1ccc(OC)c(NC(=O)CN(C)CC(=O)Nc2ccccc2Br)c1,-4.1,-2.2,8.6
Cc1ccc(S(=O)(=O)c2nc(S(C)(=O)=O)sc2N2CCCCCC2)cc1,-6.4,2.2,-7.6

Later entries.
SMILES	Six1-Eya2 inh	Sfp PPTase inh	D2 PAM	TRPV1 PAM	D2 ag	PINK1 modulator	CtBP-E1A inh
CCOc1ccc2nc(SCC(=O)N(C)C)[nH]c2c1	2.9	7.7%	2.3	24.4	0.5	-0.6%	3.8
Cc1cccc(NC(=O)COc2ccccc2)c1	3.0	8.8%	-11.5	-11.1	-1.3	3.3%[38.3 µM]	0.5
Cc1csc2nnc(N)n12	1.4	-1.6%	u	13.0	4.3	-0.9%	-2.3
COc1ccc(-c2nc3cc(C)c(Br)c(C)n3c2Cc2ccsc2)cc1OC	3.8	x	x	x	x	-0.2%	-2.5
Cc1ccc(C(=O)NCc2ccc3c(c2)OCO3)c(Cl)c1	9.9	x	-9.7	x	2.0	-0.9%	0.0
O=C(CSc1ccccn1)Nc1ccc2c(c1)C(=O)c1ccccc1C2=O	-14.3	-27.2%	2.7	-1.3	-4.0	8.7%	0.0
Cc1cc2oc(=O)c3c(c2cc1OC(=O)c1ccco1)CCCC3	5.9	19.9%	-10.9	-14.5	-0.9	-1.4%	-2.1
O=C(NCc1ccc(C(F)(F)F)cc1)C1CC(c2ccccc2[N+](=O)[O-])=NO1 (stereo not given)	-5.9	-3.5%	-7.5	22.9	3.3	0.0%	0.3
CC(=O)Oc1ccc(/C=N/NC(=S)Nc2ccccc2)cc1	-24.7	-14.8%	-1.7	13.0	-4.0	-0.1%	-3.8
C/C(=N\Nc1ccc2nncn2n1)c1cccs1	-0.5	-9.0%	-7.8	-27.3	-5.4	12.2%	3.4

4 structures already listed, ordered by formula weight, descending:
SMILES	Six1-Eya2 inh	Sfp PPTase inh	D2 PAM	TRPV1 PAM	D2 ag	PINK1 modulator	CtBP-E1A inh
COc1ccc(-c2nc3cc(C)c(Br)c(C)n3c2Cc2ccsc2)cc1OC	3.8	x	x	x	x	-0.2%	-2.5
O=C(NCc1ccc(C(F)(F)F)cc1)C1CC(c2ccccc2[N+](=O)[O-])=NO1 (stereo not given)	-5.9	-3.5%	-7.5	22.9	3.3	0.0%	0.3
O=C(CSc1ccccn1)Nc1ccc2c(c1)C(=O)c1ccccc1C2=O	-14.3	-27.2%	2.7	-1.3	-4.0	8.7%	0.0
CCOc1ccc2nc(SCC(=O)N(C)C)[nH]c2c1	2.9	7.7%	2.3	24.4	0.5	-0.6%	3.8

The list continues:
SMILES	Six1-Eya2 inh	Sfp PPTase inh	D2 PAM	TRPV1 PAM	D2 ag	PINK1 modulator	CtBP-E1A inh
CC1CC(N(C(=O)C2CC2)c2ccccc2)c2ccccc2N1C(=O)C1CC1 (stereo not given)	-1.1	21.1%	-1.9	-16.4	-3.2	x	6.7
O=[N+]([O-])c1cccc(-c2nnc3c4ccccc4c4ccccc4n23)c1	-4.6	2.1%	-22.9	-9.8	-2.0	13.9%	-10.6
CCCc1nnc(NC(=O)CC(=O)OCC)s1	7.7	11.1%	-6.9	-0.7	2.4	-1.0%	4.7
COc1ccc(N=C2NC(=O)/C(=C\C=C\c3ccco3)S2)cc1	-21.0	u	-11.7	3.7	-4.2	4.5%	-12.5
CNC(=S)N/N=C/c1c(C)nn(-c2ccc(F)cc2)c1Cl	-6.2	-1.2%	5.9	21.7	4.0	8.7%	-2.6
CCCCn1c(=O)[nH]c(=O)c2c1nc(-c1ccc(OCCC)c(OCC)c1)n2CCOC	2.9	1.7%	6.4	5.3	1.1	7.2%	-1.6
